Assay outcomes deposited in PubChem by ICCB-Longwood Screening Facility, Harvard Medical School.
Mtb MbtI inh: MbtI salicylate synthase inhibitors, primary screen, biochemical, fluorescence intensity; purified MbtI enzyme, fluorescence intensity read-out; inhibition, %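 (about 17 µg/mL by stock and volumes)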; 0.89% of 100,000 active;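 active = above 50% in both replicates, above 80% if mildly self-fluorescent; inactive = the rest, strongly fluorescent compounds included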;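 note: 0% = mean of negative and 100% = mean of positive controls; one replicate is shown; some compounds called inactive have numbers as strong as hits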
Mtb MenB inh: M. tuberculosis MenB inhibitors, primary screen, biochemical, absorbance; 1,4-dihydroxy-2-naphthoyl-CoA synthase (Mycobacterium tuberculosis (strain ATCC 25618 / …; MenB enzyme assay, absorbance read-out; some hits fall short of the stated cut; inhibition, %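 (about 12 µg/mL by stock and volumes)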; 0.43% of 100,000 active;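 active = mean of two replicates above 30%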;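 note: 0% = no compound and 100% = wells with inactive enzyme; the first replicate is given; strong numbers were not always called active; inactives centre near -10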
Target sequence (P9WNP5 whole entry, looked up): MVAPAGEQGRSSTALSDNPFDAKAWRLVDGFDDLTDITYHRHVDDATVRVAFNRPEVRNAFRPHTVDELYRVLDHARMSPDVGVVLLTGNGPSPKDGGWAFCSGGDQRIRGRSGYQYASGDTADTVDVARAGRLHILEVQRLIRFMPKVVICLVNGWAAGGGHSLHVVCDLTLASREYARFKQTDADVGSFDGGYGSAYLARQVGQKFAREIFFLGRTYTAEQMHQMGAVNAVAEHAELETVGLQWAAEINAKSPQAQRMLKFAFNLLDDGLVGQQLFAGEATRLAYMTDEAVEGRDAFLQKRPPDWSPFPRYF
PV pol inh: poliovirus RdRp elongation inhibitors, primary screen, biochemical, fluorescence polarization, total intensity; Genome polyprotein (Poliovirus type 1 (strain Mahoney)), P03300; poliovirus polymerase elongation; active compounds read low; % elongation, % (compound at 16.7 µg/mL); 0.66% of 150,000 active; in the data active = % elongation below about 90%; note: some results filed as inactive read as strong as hits
Target sequence (P03300 1749-2209 limits assumed): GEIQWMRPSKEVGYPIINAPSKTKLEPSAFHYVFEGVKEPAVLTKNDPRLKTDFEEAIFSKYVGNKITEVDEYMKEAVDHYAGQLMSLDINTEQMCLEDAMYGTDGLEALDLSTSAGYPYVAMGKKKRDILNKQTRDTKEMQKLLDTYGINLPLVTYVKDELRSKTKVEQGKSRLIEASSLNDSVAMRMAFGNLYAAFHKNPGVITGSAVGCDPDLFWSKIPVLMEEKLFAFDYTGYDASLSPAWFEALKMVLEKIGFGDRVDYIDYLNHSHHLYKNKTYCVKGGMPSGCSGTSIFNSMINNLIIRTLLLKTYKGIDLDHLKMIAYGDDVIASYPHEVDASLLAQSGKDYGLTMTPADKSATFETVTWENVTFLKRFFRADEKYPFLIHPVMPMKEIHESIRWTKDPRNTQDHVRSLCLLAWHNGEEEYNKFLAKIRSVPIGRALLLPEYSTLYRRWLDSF
PV pol inh intensity: recorded beside PV pol inh, whose call it bears; % elongation; measured here: total intensity read-out; formula for this scale not given here;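 total fluorescence in place of polarization; lower means less elongation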
* marks the source's active call; other numbers are inactive results; i = inactive; · = not tested or not shown.

Each structure is followed by: Mtb MbtI inh	Mtb MenB inh	PV pol inh	PV pol inh intensity
Cc1cc(C)c(C(=O)CC(N2CCCCC2)C(F)(F)F)c(=O)[nH]1 (stereo unspecified)
→ 8	-7	104	106
Cc1cc(S(=O)(=O)N2CCCC2)c(C)s1
→ ·	4	102	94
Cc1sc(NC(=O)c2ccco2)c(CN2CCCCC2)c1C
→ 6	6	99	101
N#Cc1c(-c2cccs2)nc(SCC(=O)c2ccc(Br)cc2)[nH]c1=O
→ 1	-9	109	104
CCCCC(=O)Nc1nc2ccccc2s1
→ 6	-30	103	102
CCN(C(=O)c1cccc(C(=O)N(CC)c2ccccc2)c1)c1ccccc1
→ ·	-18	103	104
CN(Cc1ccccc1)C(=O)CN1CCN(S(=O)(=O)c2ccccc2F)CC1
→ -2	-6	·	·
Cc1ccc(-c2nc(CSCC(=O)N3CCCC3)c(C)o2)cc1
→ 11	-19	101	98
COc1ccc2c(C)c(CC(=O)N3CCCC3)c(=O)oc2c1OC
→ 70	-1	103	104
Cn1c(=O)cc2c3c(cccc31)C(=O)c1ccccc1-2
→ -6	0	95	107
CCOC(=O)c1c(NC(=O)Nc2ccc(Cl)c(Cl)c2)sc(C)c1C
→ 1	1	103	102
c1ccc(Cc2nc3c4cnn(Cc5ccccc5)c4ncn3n2)cc1
→ -6	0	101	103
O=C(NC1CCCC1)C1CCN(c2nc3ccccc3n3cccc23)CC1
→ 6	10	106	99
CCn1c(CNc2cccc(Cl)c2)nnc1SCc1ccccc1
→ -18	38	102	102
O=C1CSC(=S)N1C1CCS(=O)(=O)C1 (stereo unspecified)
→ 2	-85	105	99
COc1cc(CNC(C)(C)C)cc(Cl)c1OCc1cccnc1
→ -6	11	99	106
CC(C(=O)Nc1ncccn1)(C(F)(F)F)C(F)(F)F
→ 1	13	102	102
Cc1cc(=O)[nH]c(-n2ncc(C#N)c2N)n1
→ 19	-14	116	145
CCCCN=C1SCC(c2ccc(Br)s2)=NN1C
→ 1	3	101	107
N#CCSc1nc(N2CCOCC2)nc(N2CCOCC2)n1
→ -15	-8	100	102
CC1CCC2(CC1)NC(=O)N(Nc1ncnc3sccc13)C2=O (stereo unspecified)
→ -1	-13	104	110
Cc1ccc(S(=O)(=O)c2nnn3c2nc(NCC2CCCO2)c2ccccc23)cc1 (stereo unspecified)
→ 28	-3	102	108
CCn1c(Cn2nnc3ccccc3c2=O)nc2cc(S(=O)(=O)N(C)C)ccc21
→ -5	-32	107	106
Cc1cccc(N(C)C(=O)C(C)Sc2nc3ncccc3o2)c1 (stereo unspecified)
→ -14	0	99	102
CC1CCN(CC(=O)Nc2ccccc2Br)CC1
→ -11	-15	100	102
COC(=O)C(O)(c1ccc(C)o1)C(F)(F)F (stereo unspecified)
→ 12	5	98	103
COc1ccccc1/C=C/C=N/n1c(-c2ccncc2)n[nH]c1=S
→ 21	0	101	99
Nc1ccc(CCC(=O)O)cc1
→ 1	-28	99	101
COc1ccc(O)c(C(=O)c2cnc3c(c2)c(=O)[nH]c(=O)n3C)c1
→ 11	-14	101	102
O=C(Nc1ccccc1)Nc1ccc(N2CCOCC2)cc1
→ ·	3	104	116

Single entries from the results shown:
Cc1cc(C)c(C(=O)CC(N2CCCCC2)C(F)(F)F)c(=O)[nH]1 (stereo unspecified) in Mtb MbtI inh has 8
Cc1cc(S(=O)(=O)N2CCCC2)c(C)s1 in Mtb MenB inh has 4

Next compounds:
Each structure is followed by: Mtb MbtI inh	Mtb MenB inh	PV pol inh	PV pol inh intensity
COC(=O)c1cc(OC)c(OC)cc1NC(=O)Nc1ccccc1OC
→ 124	6	100	93
C/C(=N\N1C(C)CCCC1C)c1ccco1 (stereo unspecified)
→ -3	-13	109	118
CCn1nc(NC(=O)c2ccco2)c2cc3ccc(C)cc3nc21
→ -36	-66	99	103
O=C(O)CCCN1C(=O)CSC1=S
→ ·	-151	101	109
CCc1c(C)sc(NC(=O)c2ccco2)c1C(=O)NCc1ccccc1
→ 87	-2	101	102
CCn1cc(C(=O)NCCc2ccccc2)c(=O)c2cc(S(=O)(=O)N(C)C)ccc21
→ 1	-6	101	104
N=C1/C(=C/c2ccco2)C(=O)N=C2SC(C3CCCCC3)=NN12
→ 8	-21	101	101
Cc1ccc(-c2nnc(N3CCN(c4ccccn4)CC3)c3ccccc23)cc1
→ 1	-29	100	99
O=C(CSc1nc2ccccc2[nH]c1=O)NCc1ccco1
→ 19	-10	98	107
CN(Cc1nc2ccccc2n1C)C(=O)c1ccco1
→ -8	9	103	103
Ic1cccc(-c2nnc(-c3ccccc3)o2)c1
→ -7	·	102	97
Cc1nn(CCC#N)c2nc(-c3cccnc3)cc(C(F)(F)F)c12
→ -3	-1	104	110
CCn1c(C(=O)N2CCC(C(=O)N3CCC(Cc4ccccc4)CC3)CC2)cc2sccc21
→ 0	-18	101	106
Cc1ccc(SCC(=O)Nc2ccc3c(c2)n(C)c(=O)n3C)cc1
→ 4	-19	100	98
COc1ccc(NS(=O)(=O)c2ccc(-c3cc(C(F)(F)F)no3)s2)cc1
→ -4	-22	102	101
CCOC(=O)CC1=Nn2c(nnc2-c2ccc(OC)cc2)SC1
→ 2	-14	100	96
Cc1ccc(-c2nnc(SC(=O)OCc3ccccc3)o2)cc1
→ 6	-13	105	109
COc1cc(C2NC(=O)NC(C)=C2C(=O)NCc2ccccc2)ccc1OCC(N)=O (stereo unspecified)
→ ·	-7	101	103
CCOC(=O)c1ccc(CSc2nncn2N)o1
→ -4	-10	104	103
C=C(C)COc1ccc2c3c(c(=O)oc2c1OCC(=C)C)CCC3
→ 1	-1	103	103
CCCS(=O)c1ccccc1 (stereo unspecified)
→ -14	-1	100	102
Cc1nc(C)c(C(=O)NC2CCSc3ccccc32)s1 (stereo unspecified)
→ -2	-21	104	112
CC1CC(C)CN(C(=O)c2ccc3c(c2)OCO3)C1 (stereo unspecified)
→ ·	-13	107	111
C1CCC(N2CCC(N3CCCCC3)CC2)CC1
→ -5	-12	98	100
CCOC(=O)c1cc2oc(C)cc2n1CC(=O)N(C)C1CCCCC1
→ -7	-63	105	102
Cc1nc2c3cc(F)ccc3n(CCN3CCOCC3)c2s1
→ 12	-56	103	99
COc1ccc(-c2cc(NC(=O)N3CCc4ccccc4C3)c3ccccc3n2)cc1
→ i	-45	102	101
COc1ccccc1NC(=O)C1C(=O)CNC23CCCCC2C1c1ccccc1O3 (stereo unspecified)
→ -7	-8	102	102
Cc1c(C(=O)NCc2ccccc2)oc2c1C(=O)CCC2
→ -6	10	103	105
CC(=O)N1CCC(c2ccc(Cl)cc2)=N1
→ -184	-76	101	104

Additional structures:
Each structure is followed by: Mtb MbtI inh	Mtb MenB inh	PV pol inh	PV pol inh intensity
O=C(O)CSCC(=O)Nc1cccc(O)c1
→ 9	-27	100	103
CC(C)(C)c1[nH]nc2c1C(c1ccc(OC(=O)c3ccccc3Cl)cc1)C(C#N)=C(N)O2 (stereo unspecified)
→ 2	-7	104	97
O=C1NC(=S)NC(=O)C1=CN1CCc2ccccc2C1
→ 22	-70	102	106
COC(=O)c1ccccc1NC(=O)COc1ccc(OC)cc1
→ 0	-12	104	104
N#Cc1c(N2CCCC2)n[nH]c1N
→ 16	-1	101	107
Clc1ccc(N=Cc2c(-c3ccccc3)nc3n2CCS3)cc1
→ 1	-2	100	105
COCCN(Cc1nnc(-c2cccs2)o1)C(=O)c1cc(Cl)c(OC(C)C)c(OC)c1
→ 23	-22	97	94
O=S(=O)(c1ccccc1)c1cnc2ccccc2c1N1CCCC1
→ -1	-23	98	106
O=C(Nc1ccc2cn[nH]c2c1)c1cccc(Oc2ccccc2)c1
→ 0	·	102	102
NC(=O)CSc1nnc(-c2ccccc2)n1-c1ccccc1
→ -4	-98	99	101
COc1cccc(CC(NC(C)=O)C(=O)NC2CCN(c3nc(C)cc(C)n3)CC2)c1OC (stereo unspecified)
→ 7	-51	99	101
O=c1c(Cl)c(Cl)cnn1CN1CCCC1c1nc2ccccc2s1 (stereo unspecified)
→ 2	-25	100	95
CC1CCCN(C(=O)COC(=O)/C=C/c2ccccc2Cl)C1 (stereo unspecified)
→ 4	·	104	98
Cc1ccc(Nc2nnns2)cc1C
→ 60*	-18	94	97
CCn1c(-c2ccco2)nn(CN2CCN(S(=O)(=O)/C=C/c3ccccc3)CC2)c1=S
→ 5	-20	102	106
CCOC(=O)c1sc(N)c(C(=O)OCC)c1CSc1nncs1
→ 4	2	104	106
c1nc(N2CCCC2)c2c3c(sc2n1)CCCC3
→ -2	-21	104	104
COc1ccc(-c2nc3ccccc3c(=O)n2CCN2CCOCC2)cc1
→ -3	-12	104	102
C=CCn1c(SCC(=O)Nc2ccc(C)cc2)nnc1C1CC1
→ -14	-16	103	108
C=CCN=C1N=C2SC=CN2C(=O)/C1=C\c1ccccc1
→ 13	-18	100	107
O=C(Nc1ccccc1C(=O)N1CCCC1)C(c1ccccc1)c1ccccc1
→ ·	-24	107	106
N#CCCN(CC1COc2ccccc2O1)C(=O)c1ccccc1 (stereo unspecified)
→ -16	-9	101	104
CNC(=O)NC(=O)C(C)Sc1nnc(Nc2ccc(OC)cc2)s1 (stereo unspecified)
→ 4	-19	99	104
CC(c1ccccc1)n1c(=S)[nH]c2ccccc21 (stereo unspecified)
→ 89*	-13	103	100
O=C(O)c1ccc(CSc2nnc(Cc3ccccc3)n2-c2ccccc2)cc1
→ ·	-18	104	106
CC12CCC(O)CC1=CCC1C2CCC2(C)C(O)/C(=C/c3ccc(F)cc3)CC12 (stereo unspecified)
→ ·	-30	112	109
Cc1noc(C)c1/C=C1\N=C(C23CC4CC(CC(C4)C2)C3)OC1=O
→ -12	-27	95	95
CCc1cccc(NC(=O)CSc2ncccn2)c1
→ -5	-22	103	100
Cc1ccc(-c2noc(CN(C(=O)c3ccc(C)cc3Cl)C(C)C)n2)cc1
→ -7	-4	102	103
CNCc1cc(C)[nH]n1
→ -2	1	100	100

Shown in CSV form: entries from further up
SMILES,Mtb MbtI inh,Mtb MenB inh,PV pol inh,PV pol inh intensity
CCn1c(-c2ccco2)nn(CN2CCN(S(=O)(=O)/C=C/c3ccccc3)CC2)c1=S,5,-20,102,106
N#Cc1c(N2CCCC2)n[nH]c1N,16,-1,101,107
O=C(O)c1ccc(CSc2nnc(Cc3ccccc3)n2-c2ccccc2)cc1,·,-18,104,106
O=c1c(Cl)c(Cl)cnn1CN1CCCC1c1nc2ccccc2s1 (stereo unspecified),2,-25,100,95
C=CCn1c(SCC(=O)Nc2ccc(C)cc2)nnc1C1CC1,-14,-16,103,108

Carrying on.
Each structure is followed by: Mtb MbtI inh	Mtb MenB inh	PV pol inh	PV pol inh intensity
Cc1c(C(=O)N2CCN(C)CC2)oc2c1C1(CCC2)SCCS1
→ -10	-17	103	105
N#CCc1ccc(N)cc1
→ 4	8	103	103
O=C1c2cccc3cccc(c23)N1S(=O)(=O)c1cccs1
→ -1	·	100	97
COc1ccc(CN2CC(C(=O)NCc3ccc4c(c3)OCO4)CC2=O)cc1 (stereo unspecified)
→ -3	-27	101	98
Cn1c(=O)c(=O)n(C)c2cc(S(=O)(=O)NCCOc3ccccc3)ccc21
→ 1	10	99	102
COc1ccc2ncc(S(=O)(=O)c3ccc(Cl)cc3)c(N3CCCCC3C)c2c1 (stereo unspecified)
→ -7	3	100	104
COc1ccc(OCC(=O)N2CCc3ccccc3C2)cc1
→ 8	2	104	106
Cc1ccc(C(=O)OCC(N)=O)s1
→ -2	·	98	107
O=C(NCCc1ccccc1)c1cc2ccccc2o1
→ 0	2	103	101
Cc1nc(SC(C)C(=O)NCc2ccc3c(c2)OCO3)c2cnn(-c3ccccc3)c2n1 (stereo unspecified)
→ 5	-13	101	104
O=C(Sc1ccc(Cl)cc1)c1ccco1
→ ·	-30	104	102
CC(C)(C)Nc1ncnc2c1cnn2-c1ccccc1
→ 1	6	99	104
O=[n+]1cc(-c2ccccc2)n([O-])c2c1CCCC2
→ 14	-11	103	107
COc1ccccc1C1=NOC(C(=O)O)C1 (stereo unspecified)
→ ·	4	98	98
CN(C)/N=C(\Cn1nnc(N2CCCC2)n1)c1ccc(Cl)cc1
→ -9	-26	102	93
